HPGD block = qHTS Assay for Inhibitors of HPGD (15-Hydroxyprostaglandin Dehydrogenase); purified HPGD, NADH fluorescence kinetic, PGE2 substrate; Potency, µM, for inactives: at the highest dose activity change, negative = inhibition, usual class: inhibitors; 150,000 compounds, 4.3% hits; AID 894, 2007; active = well fitted inhibition curve with a large enough effect (not every such curve was filed as active); inconclusive = small, poorly fitted or top-dose-only effect, or another doubt; inactive = no such curve, though single readings can be large or run the other way;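 further: top concentration of the series not given in the record; plate controls included wells without enzyme; inactives centre near -10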
Target sequence (P15428 whole entry, looked up): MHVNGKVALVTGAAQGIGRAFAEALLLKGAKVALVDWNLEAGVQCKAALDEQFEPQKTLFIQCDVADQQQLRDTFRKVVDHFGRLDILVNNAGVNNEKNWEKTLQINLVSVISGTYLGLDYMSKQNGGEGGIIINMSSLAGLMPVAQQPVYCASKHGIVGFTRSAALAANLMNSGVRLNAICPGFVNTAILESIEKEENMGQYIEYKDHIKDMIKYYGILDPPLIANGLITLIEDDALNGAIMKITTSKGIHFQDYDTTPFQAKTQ
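NADH formation kinetics: reaction with 30 uM PGE2 and 1 mM NAD+ (final), 20 nM enzyme, Tris-HCl pH 8 with Tween 20, after 15 min compound preincubation at room temperature. Fluorescence change, last versus first of five reads.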
The depositor's hits bear a star; ? = inconclusive. On the % scale 0 is the no-effect control and ±100 the full control effect; potency means the concentration at half of the fitted maximal effect. An excerpt (hit frequency here may not be typical).

SMILES	HPGD block
O=C(c1ccccc1Cl)N1CCNCC1	-9.1%
COCCOC(=O)c1c(C)n(C)c2ccc(OC(=O)c3ccco3)cc12	-6.3%
CCOC(=O)c1sc2cc([N+](=O)[O-])cc(SCC(=O)OC)c2c1N	?
O=C(NCCCn1ccnc1)C(=O)NCC(c1cccnc1)N1CCN(c2ccccc2)CC1 (stereo not drawn)	-2.2%
NCCc1ccn[nH]1	0.9%
Cc1cc(Cc2cc(Cc3cc(C)cc(C(C)(C)C)c3O)c(C)cc2C)c(O)c(C(C)(C)C)c1	-10.4%
C[C@@]12C=CC(=O)C=C1CCC1C3CC(O)[C@@](O)(C(=O)CO)[C@]3(C)CC(O)[C@]12F (stereo partly drawn)	-5.8%
CCC(C)NS(=O)(=O)c1ccc(OCC(=O)NCc2ccco2)cc1 (stereo not drawn)	-13.1%
Cc1nc(N2CCN(C(=O)c3ccco3)CC2)c2c3c(sc2n1)CCCC3	15.8µM*
Cc1ccc(NCc2ccccc2OCc2ccccc2F)cc1	-21.6%
O=c1c(-c2cc(F)cc(F)c2)nc2cncnc2n1Cc1ccc(F)cc1	-17.5%
Cc1ccc(S(=O)(=O)N(c2cccc(C(F)(F)F)c2)C2C=CS(=O)(=O)C2)cc1 (stereo not drawn)	-6.3%
CC1CCCN(c2nc3nonc3nc2N2CCCC(C)C2)C1 (stereo not drawn)	-9.0%
CCc1ccc(C(C)NC(=O)/C(C#N)=C\c2cn[nH]c2-c2ccccc2)cc1 (stereo not drawn)	-13.0%
COC(=O)CNC(=O)C1(CC(C)C)C=CCN1C(=O)c1ccccc1 (stereo not drawn)	-1.4%
COC(=O)CC1Oc2ccccc2N(Cc2ccc(C)cc2)C1=O (stereo not drawn)	-28.0%
CNC1CC(N)[C@H](O)[C@@H](O[C@@H]2OC(CO)C3OC4(OC(C(N)CO)C(O)C(O)C4O)O[C@@H]3[C@H]2O)C1O (stereo partly drawn)	-1.5%
Cc1cc(=O)[nH]c(SCCOc2ccc3c(c2)CCC3)n1	-17.8%
O=C(Cn1nc(-c2ccc(Cl)cc2)ccc1=O)N1CCN(c2ccccc2)CC1	-8.2%
Cc1ccc(S(=O)(=O)N(C)CC(=O)Nc2cccc3c2CCCC3)cc1	-1.7%
CCN1CCN(C2=NC(=O)/C(=C/c3ccc(C)o3)S2)CC1	-19.0%
CNCCCOc1ccc(C)cc1Br	5.7%
CCN(CC)C(=O)c1ccc2c3c(cccc13)C(=O)N(CCc1ccc(OC)c(OC)c1)C2=O	17.8µM*
CSc1ccc(C2NC(=O)c3c(sc4c3CCN(C)C4)N2)cc1 (stereo not drawn)	?
Cc1nn(C)c(C(=O)N2CCOCC2)c1Cl	-13.8%
CCC(C)N1C(=O)CCC1C(=O)O (stereo not drawn)	-6.4%
Cc1nn(C(=O)N2CCCCC2)c(C)c1CN1C(=O)c2ccccc2C1=O	-21.4%
CCOC(=O)N1CCN(C(=O)CCSc2ccccc2)CC1	-10.2%
CC(=O)CC(=O)Nc1ccccc1	-0.3%
COc1ccc(-c2coc3c(OC)c(OC)cc(O)c3c2=O)cc1	-12.4%

Look-ups from the list:
HPGD block result of `CCOC(=O)N1CCN(C(=O)CCSc2ccccc2)CC1` : -10.2%
HPGD block result of `C[C@@]12C=CC(=O)C=C1CCC1C3CC(O)[C@@](O)(C(=O)CO)[C@]3(C)CC(O)[C@]12F` (stereo partly drawn) : -5.8%
HPGD block result of `CC(=O)CC(=O)Nc1ccccc1` : -0.3%
HPGD block result of `COC(=O)CNC(=O)C1(CC(C)C)C=CCN1C(=O)c1ccccc1` (stereo not drawn) : -1.4%
HPGD block result of `CCC(C)N1C(=O)CCC1C(=O)O` (stereo not drawn) : -6.4%

The list goes on.
SMILES	HPGD block
CC(C(=O)N1CCc2ccccc21)n1cccc1 (stereo not drawn)	-10.0%
Nc1nc(SCC(=O)N2CCCC2)[nH]c(=O)c1NC(=O)c1ccco1	-6.9%
Cc1cc(C(F)(F)F)n(-c2nc(C(=O)N/N=C/c3ccc(F)cc3)cs2)n1	28.2µM*
N#Cc1c(-c2ccc(F)cc2)cc(-c2cccnc2)nc1N	?
COc1ccc(S(=O)(=O)N(C)c2ccc(C(N)=O)cc2)cc1	-7.1%
C=CCn1c(SCN2C(=O)c3ccccc3C2=O)nc2ccc(Cl)cc2c1=O	-9.9%
Cc1ccc(-c2nc(NCCN3CCOCC3)c3ccccc3n2)cc1	-12.9%
CCOC(=O)N1CCN(C(=O)CSc2nc3c([nH]c4ccccc43)c(=O)n2C)CC1	-22.8%
CC(=O)Nc1ccc(C(=O)N/N=C/c2ccccc2OC(=O)c2ccc(Cl)cc2)cc1	-22.7%
CCCSc1nc(N2CCOCC2)c2c(c1C#N)CC(C)(C)SC2	-13.5%
CCOc1ccc(C(=O)COc2ccc(NC(C)=O)cc2)cc1	-21.1%
CCOC(=O)COc1ccc(Br)cc1/C=C\c1[nH]c(=O)[nH]c(=O)c1[N+](=O)[O-]	15.8µM*
CC[C@@H]1C=C(C)C[C@H](C)C[C@H](OC)[C@H]2O[C@@](O)(C(=O)C(=O)N3CCCC[C@H]3C(=O)O[C@H](/C(C)=C/[C@@H]3CC[C@@H](O)[C@H](OC)C3)[C@H](C)[C@@H](O)CC1=O)[C@H](C)C[C@@H]2OC	-10.4%
Cc1cc(N2C(=O)CCC2=O)ccc1NC(=O)c1cccs1	-10.2%
CCCn1nnc(NC(=O)C(C)Oc2ccc(Cl)cc2Cl)n1 (stereo not drawn)	-19.6%
COc1cc(C(=S)N2CCOCC2)ccc1OS(=O)(=O)c1ccccc1[N+](=O)[O-]	?
Cc1sc2ncn(CC(=O)OCC(=O)NC(C)(C)C)c(=O)c2c1C	-7.7%
Cc1ccc(-c2ncccc2OC(=O)C23CC4CC(CC(C4)C2)C3)cc1	?
Cc1ccc(-n2c(=O)c(C#N)cc3c(=O)n4ccccc4nc32)cc1C	?
Cc1cccc2c1CC(C)(C)N/C2=C\C(N)=O	-13.6%
COc1ccc2c(c1OC)C(Cc1ccccc1)N1CCc3cc4c(cc3C1=C2)OCO4 (stereo not drawn)	?
Cc1ccc(-c2nnc(-c3ccc4ccccc4c3)o2)cc1	?
Cc1nn(C)c(C)c1S(=O)(=O)NC1CCCC1	-0.7%
Cc1ccc(NC(=O)COC(=O)CNC(=O)c2ccc3ccccc3c2)c([N+](=O)[O-])c1	-10.4%
Clc1cc(Cl)cc(C2=NCCC(c3ccccc3)O2)c1 (stereo not drawn)	-10.8%
COCCOC(=O)c1c(C)nc(SCC(=O)Nc2ccc(C)cc2)c(C#N)c1-c1ccco1	-22.3%
CCOc1cc(Br)ccc1S(=O)(=O)NCc1ccccc1	-4.2%
CCOC(=O)C(C)n1cnc2c(nnn2Cc2ccc(C)cc2)c1=O (stereo not drawn)	-8.1%
CCOc1ccc(-n2c(C)nc3cc(C(=O)NCc4ccc5c(c4)OCO5)ccc32)cc1	?
CCc1nc(NCc2ccccc2)c(C#N)c2c1CCCC2	?

Reprinted from the part before: 2 entries; new compounds follow.
SMILES	HPGD block
CCOc1ccc(-n2c(C)nc3cc(C(=O)NCc4ccc5c(c4)OCO5)ccc32)cc1	?
CCc1nc(NCc2ccccc2)c(C#N)c2c1CCCC2	?
CCc1ccc(C2CC(c3ccccc3Cl)Nc3nc(N)nn32)cc1 (stereo not drawn)	-3.6%
COC(=O)[C@@H]1CC[C@H](C)[C@@H](c2ccc(C)cc2)N1C(=O)c1ccc(/C=N/O[C@@H](C)c2cn([C@H](CO)Cc3ccccc3)nn2)cc1	-7.2%
COc1cccc(Nc2nc(-c3sc(NC(=O)CC(C)C)nc3C)cs2)c1	-13.9%
Cc1ccc(SCc2cc(=O)[nH]c(N3CCN(Cc4ccccc4)CC3)n2)cc1	-0.5%
Cc1ccc(Oc2ccc(NC(=O)c3ccco3)cc2)cc1	?
CCOc1cc(N2CCOCC2)c(OCC)cc1NC(=O)CN1CCCC1	0.8%
O=C(O)c1ccccc1-c1ccccc1C(=O)NCCCO	-11.1%
CCOc1ccc(N2C(=O)CC(/C=C3/N(C)c4ccccc4C3(C)C)C2=O)cc1 (stereo not drawn)	-3.8%
CCOc1ccccc1-n1c(SCC(=O)N(CC)CC)nnc1-c1ccccn1	-3.4%
COc1cc(O)c2c(=O)c3c(OC)c(O)ccc3oc2c1	?
Cc1ccc(NC(=O)CCC(=O)N/N=C/C=C/c2ccccc2)cc1	-16.0%
N#C/C(=C\c1ccc([N+](=O)[O-])cc1)C(=O)Nc1ccccc1O	-12.8%
Cn1cc(-c2nnnn2-c2ccccc2)c(=O)c2ccccc21	-12.2%
O=C(Nc1ccc2[nH]c3c(c2c1)CCCC3)c1ccco1	?
CC(C(=O)NCCN1C(=O)S/C(=C\c2cccnc2)C1=O)N1C(=O)c2ccccc2C1=O (stereo not drawn)	-6.1%
COc1ccc(C(C(=O)NC(C)(C)C)N(Cc2ccco2)C(=O)CCC(=O)Nc2cc(C)on2)cc1 (stereo not drawn)	0.6%
Oc1ccc(CN2CCc3ccccc3C2)c2cccnc12	-5.4%
O=C(NCc1ccccn1)c1cccc([N+](=O)[O-])c1	-9.5%
Cn1nc(C(=O)NC2CCCCC2)c2ccccc2c1=O	-9.4%
Cc1sc2ncnc(SCC(=O)N3CCCC3)c2c1C	?
Cc1scc(C(=O)Nn2cnnc2)c1-c1ccccc1	-5.2%
COc1cc(C2C(C(=O)c3ccc(C)o3)=C(O)C(=O)N2c2cc(C)on2)cc(Br)c1O (stereo not drawn)	-24.4%
CCOC(=O)c1c(NC(=S)Nc2ccccc2)sc(C)c1C	22.4µM*
Cc1ccc(-c2csc(NC(=O)CSc3nc(C)cs3)n2)cc1	-24.7%
CC[C@H](C)NC(=O)c1ccc(Cn2c(=S)[nH]c3c([nH]c4ccc(OC)cc43)c2=O)cc1	?
O=C(CCCSc1nc2ccccc2s1)NCc1ccco1	?
O=C(CCn1c(=O)[nH]c2ccsc2c1=O)N1CCN(Cc2ccc3c(c2)OCO3)CC1	-12.1%
Cc1ccc(C(=O)C(C)OC(=O)C2=COCCO2)cc1C (stereo not drawn)	-10.0%
COC(=O)N(NC(=O)C(O)(c1ccccc1)c1ccccc1)c1ccccc1	0.9%
CCn1c(-c2csc(-c3ccccc3)n2)n[nH]c1=S	?
Cc1ccc(S(=O)(=O)N2CCN(C3CCN(Cc4ccccc4)CC3)CC2)cc1	-6.8%
Cc1ccc(Cl)cc1N1CCN(C(=O)c2ccc(NS(=O)(=O)c3c(C)noc3C)cc2)CC1	-21.8%
COC(=O)N/N=C/c1c(C)nn(-c2cccc(Cl)c2)c1Cl	-22.9%
O=C(Nc1ccc2nc(-c3ccccc3)oc2c1)c1ccco1	-10.4%
Cc1ccc2cc(CN(C)C(=O)C3CCCO3)c(=O)[nH]c2c1 (stereo not drawn)	-17.1%
Cc1cc(N2C(=O)C(O)=C(C(=O)c3ccco3)C2c2ccc(O)cc2)no1 (stereo not drawn)	-11.1%
CCc1ccc2[nH]c(=O)c(CN(CCCN3CCOCC3)C(=O)Nc3cccc(Cl)c3)cc2c1	-26.1%
O=C(c1ccc(CNS(=O)(=O)c2ccccc2)cc1)N1CCN(c2ccccn2)CC1	-10.3%
Cc1ccc(NN=Nc2nc3c([nH]2)c(=O)n(C)c(=O)n3C)cc1	22.4µM*
Cn1c(C23CC4CC(CC(C4)C2)C3)n[nH]c1=S	0.0%
COc1ccccc1NC(=O)N1c2ccc(F)cc2CCC1C (stereo not drawn)	-5.1%
CCCCOC(=O)c1ccc(NC(=O)c2ccoc2C)cc1	-15.2%
O=C(Nc1ccc(Oc2ncccn2)cc1)c1ccco1	-10.6%
Cc1nc2ccc(NC(=S)N3CCN(c4ccccn4)CC3)cc2nc1C	-9.8%
O=C1C(Cl)=C(N2CCCCC2)C(=O)N1c1ccccc1Cl	-13.2%
COC(=O)c1cc(OC)c(OC)cc1NC(=O)CSc1nnnn1Cc1ccccc1	?
Cc1cc(=O)n2nc(N3CCCC(C(=O)NCCCN4CCc5ccccc5C4)C3)sc2n1 (stereo not drawn)	-8.1%
CN1C(=O)C[C@H](c2ccccc2)C1=O	-8.4%
CCC1(C)N=C(c2ccc3c(c2)OCO3)CC(c2ccccc2O)N1 (stereo not drawn)	-7.8%
CC(C)CNC1=C(C(=S)Nc2ccccc2)C(=O)CC(C)(C)C1	-0.3%
CCOC(=O)c1c(NC(=O)C2=C(C)NC(=S)NC2c2ccc(F)cc2)sc(C)c1C (stereo not drawn)	?
CCN(CC(=O)Nc1ccc([N+](=O)[O-])cc1OC)CC(=O)NC(C)(C)C	-9.9%
COc1ccc(C2=NOC(C(=O)NCc3ccccn3)C2)cc1OC (stereo not drawn)	1.0%
CCCc1cc(C(=O)N2CCN(S(=O)(=O)c3ccc(OC)c(OC)c3)CC2)cs1	-0.1%
CSc1ccccc1C(=O)NCc1ccc(S(N)(=O)=O)cc1	-12.8%
Cn1c(=O)[nH]c(=O)c2c1nc(N1CCCCC1)n2CCOc1ccccc1	-5.3%
CCOC(=O)c1ccc(Oc2nc(NC)nc(Nc3ccccc3)n2)cc1	-8.6%
O=C(NNc1ccccc1)C(=O)N1CCCCC1	-8.2%
O=C(Nc1ccccc1C(=O)N1CCOCC1)C1CCCO1 (stereo not drawn)	0.7%
COc1ccc(-c2nn(CC(=O)N(C)C)c(=O)c3ccccc23)cc1	?
CCOC(=O)c1ccc(OCc2nc(-c3cccs3)no2)cc1	-15.6%
COc1ccc(NC(=O)C2CCN(S(C)(=O)=O)CC2)cc1Cl	-6.8%
COc1ccc2nc(N3C(=O)CC(Cc4ccc(C)cc4)C3=O)sc2c1 (stereo not drawn)	-5.8%
